GLA inh pH 4.5 = qHTS Assay for Inhibitors of Human alpha-Galactosidase at pH 4.5. 230,000 tested, under 10 active. purified enzyme, 4-MU-alpha-Gal fluorescence, pH 4.5. Alpha-galactosidase A (Homo sapiens), P06280. activity change, negative = inhibition, % at 105 µM; inconclusive = small, poorly fitted or top-dose-only inhibition, or a rising curve; inactive = flat fitted curve, though single readings scatter; no compound was filed as active;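 further: 0% = full activity with enzyme and -100% = basal without enzyme; dose as in the result columns while the protocol names 77 µM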
Target sequence (P06280 whole entry, looked up): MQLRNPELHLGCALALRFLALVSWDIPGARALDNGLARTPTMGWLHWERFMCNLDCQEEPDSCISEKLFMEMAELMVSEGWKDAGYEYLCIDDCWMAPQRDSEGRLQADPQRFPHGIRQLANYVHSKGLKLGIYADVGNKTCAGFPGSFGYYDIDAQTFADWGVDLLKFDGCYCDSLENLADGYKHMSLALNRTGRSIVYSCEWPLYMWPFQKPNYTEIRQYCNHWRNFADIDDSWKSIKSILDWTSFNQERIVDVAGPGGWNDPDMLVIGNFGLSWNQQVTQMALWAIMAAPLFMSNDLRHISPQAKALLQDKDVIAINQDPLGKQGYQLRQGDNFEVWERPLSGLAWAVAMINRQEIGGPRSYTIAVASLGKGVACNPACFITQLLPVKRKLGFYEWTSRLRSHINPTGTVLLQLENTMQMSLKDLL
miR-21 FLuc = qHTS Assay for Modulators of miRNAs and/orActivators of miR-21 | HeLa miR-21 FLuc reporter, luciferase, 48 h | Potency, µM (doses to about 38.3 µM), for inactives: at the top dose reporter change, positive = more light | 340,000 tested, under 10 active; active = well fitted rising curve with a large enough effect; inconclusive = small, poorly fitted or top-dose-only effect; inactive = no such curve, though single readings can be large or run the other way;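 further: % of control where 0% means no effect; miR-21 action dims this reporter so a rising signal means less miR-21 action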
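Compounds were titrated across several concentrations (up to approximately 40 uM) and incubated 48 hours with HeLa miR-21-FLuc reporter cells (miR-21 target sequence downstream of FLuc, endogenous miR-21). Readout was firefly luciferase luminescence after lytic detection reagent.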
Rango-impB inh = qHTS Assay for Inhibitors of Rango (Ran-regulated importin-beta cargo) - Importin beta complex formation | Importin subunit beta-1 (Homo sapiens), Q14974 | Rango CFP/YFP FRET sensor + importin beta, 45 min | Potency, µM (series often up to 92.2 µM), for the others: at the top dose inhibition of complex formation | 340,000 compounds, 0.031% hits | AID 540263, 2011; active = rising FRET ratio curve, often small or poorly fitted; inconclusive = mostly compound fluorescence or quenching in the first reads; inactive = flat curves in all reads;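 further: potency means the concentration at half of the fitted maximal effect; 0% = DMSO wells and 100% = buffer wells lacking importin beta; nearly all actives have a fitted effect of over 15% in size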
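FRET biosensor (snurportin 1 IBB flanked by EYFP and cerulean), 50 nM, with compound 5 min, then 0.125 microM importin beta in PBS, 1 mM DTT, 0.02% Tween-20, 0.1% BSA. CFP/YFP ratio read after 45 min at room temperature; pre-read flags interference.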
Rango dissoc inh = qHTS Assay for Inhibitors of RanGTP induced Rango (Ran-regulated importin-beta cargo) - Importin beta complex dissociation; Snurportin-1 (Homo sapiens) + GTP-binding nuclear protein Ran (Homo sapiens) + Importin …; Potency, µM (doses to about 46.1 µM), without a hit: at the top dose activity change, negative = inhibition; 340,000 compounds, 0.071% hits; AID 540253, 2011; Biochemical FRET Rango-importin beta, RanGTP-induced dissociation; active means falling FRET ratio curve, often poorly fitted, with flat reads before Ran was added; inconclusive means other falling curves, or compound fluorescence or quenching; inactive means flat or rising ratio curve;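 further: potency means the concentration at half of the fitted maximal effect; % of control where 0% means no effect; nearly all actives have a fitted effect of over 45% in size; -100% = wells without RanGTP and RCC1; the record marks most hits as doubtful in a second field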
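Compounds preincubate 5 min with complex of recombinant Rango and importin beta in PBS with 1 mM DTT. Ran (0.6 uM) loaded with 2 mM GTP plus 0.2 uM RCC1 starts dissociation; FRET is recorded 45 min later.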
Active calls of the source: *; ? = inconclusive; · = not tested or not shown; & = joins results of further samples.

SMILES	GLA inh pH 4.5	miR-21 FLuc	Rango-impB inh	Rango dissoc inh
CCCCn1c(SCC(=O)c2ccc(O)c(O)c2)nc2ccsc2c1=O	2	-1%	-1.5%	15%
O=C(NNC(=O)c1ccc(Oc2ccc(C3SCCS3)cc2)o1)c1ccc(Cl)cc1	-4	10%	2.9%	-13%
CCCC(C)c1nnc(NC(=O)CS(=O)(=O)Cc2ccccc2)s1 (stereo not given)	-5	-9%	-6.3%	-17%
COC(=O)C1CCN(C2CC(=O)N(c3cc(C)cc(C)c3)C2=O)CC1 (stereo not given)	-4	0%	-0.4%	33%
CC(C)(C)CN1CCN(CCCc2ccccc2)C(CCO)C1 (stereo not given)	·	-1%	1.0%	7%
CC(=O)N[C@@H](Cc1ccc(O)cc1)CN1C(N)=NC[C@@H]1CC(C)C	·	4%	4.0%	0%
O=C(Nc1ccc(Oc2ccccc2)cc1)C1CCCN(c2ncccn2)C1 (stereo not given)	0	-2%	0.4%	5%
CCOc1ccc(CCNC(=O)c2cc(S(=O)(=O)N3CCOCC3)ccc2C)cc1OCC	·	·	-4.1%	4%
O=C(c1ccc(Cl)c(S(=O)(=O)N2CCCCC2)c1)N1CCCCC1	·	-8%	-2.8%	?
CCN(CC)CCN(C(=O)c1ccc2ccccc2c1)c1nc2ccc(F)cc2s1	·	-23%	-3.8%	9%
Cc1cc([N+](=O)[O-])nn1CC(=O)N/N=C/c1ccccc1Br	1	10%	0.9%	-9%
Cc1cc(Br)ccc1NC(=O)CNC(=O)c1ccc(-n2cncn2)c([N+](=O)[O-])c1	·	·	-0.3%	-7%
COc1ccccc1CNC(=O)C1CCC(CNS(=O)(=O)c2ccc(C)cc2)CC1 (stereo not given)	·	-1%	2.1%	-21%
CCCN(CC(=O)Nc1ccc(F)c(F)c1F)C(=O)c1ccc2c(=O)n3c(nc2c1)CCC3	·	·	-2.2%	0%
O=C(CCCN=C1NS(=O)(=O)c2ccccc21)OCc1ccc(F)cc1	·	·	-0.2%	-1%
COC(CNC(=O)c1ccc2c(c1)ncn2C1CCCCCC1)OC	·	-18%	2.4%	-1%
CC(=O)N1CCN(S(=O)(=O)c2cccc(C(=O)N(Cc3ccccc3)c3cccc(C)c3)c2)CC1	·	·	-0.5%	10%
Cc1ccc(-c2nnc(SCC(=O)N3CCOCC3)nc2-c2ccc(C)cc2)cc1	-5	2%	-0.1%	1%
N#C/C(C(=O)NCc1ccco1)=C1/SC(Cc2ccc(F)cc2)C(=O)N1c1ccccc1 (stereo not given)	-11	-4%	?	-17%
Cc1nc(N)c(C#N)c(-c2ccccc2Cl)c1C	7	-1%	-3.0%	-13%
COc1ccccc1CCNC(=O)C(=O)NCC1OCCN1S(=O)(=O)c1ccc(Cl)cc1 (stereo not given)	·	13%	-1.5%	6%
CN1C(=O)N(c2cccc3ccccc23)C(n2cncn2)C1(C)C (stereo not given)	3	0%	2.1%	-16%
O=C(C1CCN(Cc2ccc(F)cc2)CC1)N1CCN(C/C=C/c2ccccc2)CC1	-2	10%	0.4%	-13%
Cc1ccc2c(c1)nnn2C1CCN(CC(=O)N2CCN(c3ccc(F)cc3)CC2)CC1	3	-3%	-0.6%	-9%

Not a retest: entries from further up.
SMILES	GLA inh pH 4.5	miR-21 FLuc	Rango-impB inh	Rango dissoc inh
N#C/C(C(=O)NCc1ccco1)=C1/SC(Cc2ccc(F)cc2)C(=O)N1c1ccccc1 (stereo not given)	-11	-4%	?	-17%
Cc1nc(N)c(C#N)c(-c2ccccc2Cl)c1C	7	-1%	-3.0%	-13%
COc1ccccc1CCNC(=O)C(=O)NCC1OCCN1S(=O)(=O)c1ccc(Cl)cc1 (stereo not given)	·	13%	-1.5%	6%
CN1C(=O)N(c2cccc3ccccc23)C(n2cncn2)C1(C)C (stereo not given)	3	0%	2.1%	-16%
O=C(C1CCN(Cc2ccc(F)cc2)CC1)N1CCN(C/C=C/c2ccccc2)CC1	-2	10%	0.4%	-13%
Cc1ccc2c(c1)nnn2C1CCN(CC(=O)N2CCN(c3ccc(F)cc3)CC2)CC1	3	-3%	-0.6%	-9%

Remaining list, next part
SMILES	GLA inh pH 4.5	miR-21 FLuc	Rango-impB inh	Rango dissoc inh
CC(C)c1ccc(N2CCN(C(=O)c3ccccc3NC(=O)/C=C\C(=O)O)CC2)cc1	-1	-1%	6.9%	2%
O=C(NCc1ccccn1)Nc1ccc(Cl)cc1	·	·	-1.5%	2%
COc1ccc2cc(C(=O)C3CCCN(C(=O)c4csnn4)C3)ccc2c1 (stereo not given)	3	-1%	0.5%	-6%
O=C(CN(CC1CCCO1)C(=O)CNS(=O)(=O)c1ccccc1)NCc1ccco1 (stereo not given)	1	2%	7.5%	6%
N#C/C(=C\c1cc(Br)ccc1F)C(=O)NC1CC1	·	0%	5.4%	7%
c1ccc(CSc2ccc3nnc(-c4ccccn4)n3n2)cc1	-13	-10%	-11%	9%
CNC(=S)N(CCc1c(C)[nH]c2ccccc12)Cc1cc(OC)c(OC)c(OC)c1	-1	-2%	1.6%	6%
COc1ccc2cc(CN(CC3CCCO3)C(=S)Nc3ccccc3)c(=O)[nH]c2c1 (stereo not given)	3	25%	3.2%	-13%
CC(NC(=O)COC(=O)c1cccs1)c1ccccc1 (stereo not given)	·	-7%	0.9%	12%
Cc1ccc(C)c(N(C)C(=O)c2cc3c(=O)[nH]c4ccc(C)cc4c3s2)c1	-9	-9%	-3.1%	-19%
Cc1cc(NC(=O)c2noc3c2CCc2ccccc2-3)no1	8	-16%	0.3%	1%
CC1CN(C(=O)CSc2nnc(NC(=O)NC(C)(C)C)s2)CC(C)O1 (stereo not given)	·	·	-0.5%	-3%
CC(=O)Nc1cccc(OCC(=O)Nc2sccc2C(N)=O)c1	-24	-34%	0.8%	-15%
C=C(C)CC(Nc1ccc(OC)cc1)c1ccco1 (stereo not given)	10	-1%	-0.8%	2%
CCOC(=O)N1CCN(S(=O)(=O)c2ccc(C(=O)NNc3nc4cc(C)cc(C)c4s3)cc2)CC1	?	5%	?	?
Cc1cc(C(=O)NCC(C)C)c2ccccc2n1	0	0%	3.2%	14%
Cc1ccc(NC(=O)C(=O)NCCCN2CC(C(=O)O)CC2=O)cc1 (stereo not given)	·	2%	-1.2%	2%
CC12CCC(C(=O)NCc3ccc4c(c3)OCO4)(OC1=O)C2(C)C (stereo not given)	11	-15%	-0.1%	30%
COc1cccc(NC(=O)c2ccc(NCCCN3CC(C)CC(C)C3)c([N+](=O)[O-])c2)c1 (stereo not given)	-1	1%	-2.9%	-10%
CC(C)c1ccc(NC(=O)Cn2ncc3ccccc32)cc1	·	-75%	-2.1%	11%
CCCC[C@@H]1C[C@H]1[C@@H](NC(=O)c1ccco1)c1ccc(C(=O)OC)cc1	·	·	0.3%	-12%
Cc1cc(C)c2cc(C#N)c(SCC(=O)NCc3ccco3)nc2c1	3	-17%	2.4%	-15%
COc1ccc(N2CCN(CC(=O)Nc3c(C)cc(C)cc3C)CC2)cc1	1	0%	1.8%	4%
Cc1ccc(CNC(=O)C(=O)NCC2OCCN2S(=O)(=O)c2ccc3c(c2)OCCO3)cc1 (stereo not given)	3	0%	0.1%	8%
COC(=O)CCCC(=O)N1CCC(CCC(=O)NC2CC2)CC1	·	0%	-1.2%	-3%
O=C(NC1CCCCC1)c1ccc(OC2CCN(Cc3ccccn3)CC2)cc1	·	-1%	0.4%	-10%
O=c1[nH]c2ccccc2nc1C(Nc1ccccc1)c1ccccc1 (stereo not given)	-12	1%	1.4%	13%
CCCc1ccc(OCCNC(=O)CC)cc1	3	-26%	-1.1%	16%
O=C(Nc1ccccc1Cl)C1CCCN(S(=O)(=O)c2cccc3cccnc23)C1 (stereo not given)	·	16%	-4.2%	-7%
CCCCC(=O)OCc1cn(-c2ccc(Cl)cc2)nn1	1	-5%	?	0%
COc1ccc(C(=O)Nc2ccc(S(=O)(=O)Nc3nccc(C)n3)cc2)cc1[N+](=O)[O-]	·	-11%	2.6%	2%
CC(=O)Nc1ccc(-c2c(C)cc3oc(=O)cc(-c4ccccc4)c3c2C)cc1	-4	·	3.6%	8%
O=C(O)c1cccc(CSc2ncccn2)c1	-23	-2%	-4.9%	-10%
Cc1cc(C)cc(NC(=O)N2CCCC2C(=O)Nc2ccc(-n3cnnn3)c(C)c2)c1 (stereo not given)	-23	-5%	-0.3%	-1%
CC(=O)c1c(OC(=O)c2ccccc2)c2ccccc2n1C	-1	-8%	0.3%	-3%
COc1cc2c(cc1OC)C(COc1ccc(F)cc1)NCC2 (stereo not given)	·	-7%	1.7%	4%
O=C(CN(C(=O)CCC(=O)Nc1nccs1)c1ccccc1F)NCc1ccc2c(c1)OCO2	·	8%	0.5%	17%
CCC(C)(C)C1CCc2[nH]nc(C(=O)N/N=C(\C)c3ccco3)c2C1 (stereo not given)	2	-89%	0.8%	1%
CC(=O)NCCC(=O)Nc1ccc(C)c(F)c1	-5	-1%	-1.1%	-7%
COc1ccc(C2(CNC(=O)c3ccccc3)CCOCC2)cc1	1	-5%	-2.9%	0%
Cc1nnc(SCc2cnc(-c3ccc(C(C)C)cc3)s2)n1C	-14	17%	-1.1%	-2%
Cc1c(C)n(C)c2ccc(C(=O)NCCCN3CCCCC3C)cc12 (stereo not given)	·	-4%&-1%	-3.9%	0%
CCOc1cc(NC(=O)c2ccccc2OC)c(OCC)cc1NC(=O)c1ccccc1	·	-6%	-0.3%	1%
CCOC(=O)N1CCN(C(=O)C2CCN(Cc3cccc(OCc4ccccc4)c3)CC2)CC1	-6	3%	-0.5%	4%
Cc1ccccc1NS(=O)(=O)c1cc2c(cc1C)N(C)CCO2	·	8%	4.7%	-15%
Cc1ccc(-c2nc3ccccc3c(=O)n2O)cc1	·	-8%	-2.5%	-22%
O=C(/C=C/c1ncc(C(F)(F)F)cc1Cl)OCc1ccccc1	-13	-5%	-0.8%	-4%
O=C1COc2cccnc2N1	1&1	-1%&-4%	-6.6%	14%
CC(C)Nc1ncnc2ccc(Br)cc12	3	26%	2.7%	-3%
NS(=O)(=O)c1ccc(NC(=O)/C=C/c2ccccc2Cl)cc1	4	-9%	-3.6%	3%
CN1CCC(=NNC(=O)C(=O)Nc2ccccc2)CC1	-2	-37%	-0.9%	1%
Cc1nn(C)c(C(=O)NC(=S)Nc2ccccc2O)c1Cl	·	-10%	2.2%	2%
CN1c2ccccc2C(C)(C)C12CC(c1ccc(Cl)c(S(=O)(=O)N3CCCC3)c1)=NO2 (stereo not given)	-7	5%	·	·
COc1ccc(S(=O)(=O)Nc2cc(C(=O)NCCC(C)C)ccc2N2CCOCC2)cc1	-6	-20%	0.2%	-12%
COC(=O)c1cc(S(=O)(=O)NCc2ccc(S(N)(=O)=O)cc2)oc1C	1	-3%	2.7%	15%
CC(C)c1ccc(S(=O)(=O)N2CCN(C(=O)[C@@H]3CCCN3C(=O)c3cccs3)CC2)cc1	·	·	-0.4%	-3%
Oc1c(CN2CCOCC2)cc(CN2CCOCC2)c(O)c1CN1CCOCC1	·	·	0.6%	-7%
CCOC(=O)CCC(=O)N(CCN(C(=O)CCC(=O)OCC)c1ccccc1)c1ccccc1	4	-4%	1.7%	3%
CC1CCN(S(=O)(=O)c2cn(CC(=O)N3CC(C)CC(C)C3)c(=O)c3ccccc23)CC1 (stereo not given)	5	-9%	?	3%
CCCCNC(=O)N(O)C1N(/N=C/c2ccccc2OC)C(=S)SC1(C)C (stereo not given)	·	-3%	2.6%	-9%
Other entries:
SMILES	GLA inh pH 4.5	miR-21 FLuc	Rango-impB inh	Rango dissoc inh
CCc1nnc(NC(=O)CSc2nnc3ncccn23)s1	-3	-8%	-0.9%	20%
COc1ccccc1OCCNC(=O)C1CCCCC1	-3	-4%	0.6%	-1%
CC1CC(C)CN(C(=O)C2CCCN(S(=O)(=O)c3cnc[nH]3)C2)C1 (stereo not given)	2	1%	-0.2%	1%
Cc1cc[n+](CC(=O)c2ccc3c(c2)OCCO3)cc1	6	-10%	0.3%	-13%

Source: PubChem (National Center for Advancing Translational Sciences (NCATS))

Not all compounds are listed. The share of hits here may be higher or lower than overall.
